Bioassay records deposited in PubChem BioAssay by National Center for Advancing Translational Sciences (NCATS).
CtBP-E1A inh: qHTS Assay for Inhibitors of the CtBP/E1A Interaction. AlphaScreen GST-E1A/His-CtBP binding, 1536-well; hits give low values; control for the full effect not named in the record. activity change, % (concentration not given with the values). actives 0.49% (n = 340,000); in the data active means activity change below about -65%; inconclusive means about -30% to -65%; inactive means above about -30%; further: on the % scale 0 is the no-effect control and ±100 the full control effect
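Protein mix (5X: 125 nM each GST-E1A, His-CtBP) was incubated with pinned compound 2 h at 37 deg C in dark, in 50 mM Tris pH 8.0 buffer with 300 mM NaCl. Glutathione donor and nickel acceptor beads followed; AlphaScreen signal read after 1 h.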
TRPML1 blocker: qHTS for Inhibitors of the Human Mucolipin Transient Receptor Potential 1 (TRPML1); TRPML1-inducible cells, Ca2+ dye fluorescence, FDSS; hits give low values; inhibition of EC80 agonist-evoked calcium signal; activity change, negative = inhibition, % (concentration not given with the values); AID 624415, 2012; actives 0.02% (n = 390,000); Mucolipin-1 (Homo sapiens), Q9GZU1; in the data active means activity change below about -50%; inconclusive means about -30% to -50%; inactive means above about -30%;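 further: stimulus is agonist 54-4 at its EC80 concentration; on the % scale 0 is the no-effect control and ±100 the full control effect; compound concentration not given in the record; the text of the record puts the active cut at -80%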
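TRPML1-DL cells, Tet-induced overnight (~16 h, 37 °C) at 1,500 cells/well, were loaded with Ca8 no-wash dye plus quencher for 45-90 min at room temperature. Compounds were pinned during FDSS kinetic reading; agonist 54-4 at EC80 (4 uM final) then added.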
Six1-Eya2 inh: qHTS Assay for Inhibitors of the Six1/Eya2 Interaction; Homeobox protein SIX1 (Homo sapiens) + Protein phosphatase EYA2 (Homo sapiens), …; AlphaScreen GST-Six1/His-Eya2 binding, biochemical; hits give low values; control for the full effect not named in the record; activity change, % (test concentration not listed); actives 0.56% (n = 360,000); in the data active = activity change below about -65%; inconclusive = about -30% to -65%; inactive = above about -30%; further: on the % scale 0 is the no-effect control and ±100 the full control effect; compound concentration not given in the record
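AlphaScreen luminescence read after one hour at 37 °C in darkness. Pin-transferred compounds met GST-Six1 and His-Eya2 protein (5X stock 250 nM/500 nM) plus glutathione donor and Ni-chelate acceptor beads (5X, 50 ug/mL).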
D2 potentiator: Beta-Arrestin HTS for Positive Allosteric Modulators of the Human D2 Dopamine Receptor: Potentiators; D(2) dopamine receptor (Homo sapiens), P14416; DiscoveRx D2 beta-arrestin cells, luminescence, 90 min; 100% = 57 uM dopamine signal; potentiation, % (concentration not given with the values); actives 0.23% (n = 360,000); AID 624464, 2012; active = potentiation of 50% or more; inconclusive = 30% to 50%; inactive = 30% or less;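 further: compound concentration not given in the record; tested on top of an EC20 dose of dopamine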
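PathHunter D2 cells, attached overnight at 37 deg C, received compound in DMSO plus dopamine at EC20 (50 nM final) for 90 min at 37 deg C. Beta-arrestin recruitment was read as luminescence after 1 h with detection reagent at ambient temperature.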
TRPV1 potentiator: HTS Assay for Compounds that Act as Potentiators of the Vanilloid Receptor 1; actives 0.02% (n = 320,000); TRPV1-expressing cells, Fluo-8 calcium influx, capsaicin EC20 potentiation; host cell line not named in the record; control for the full effect not named in the record; AID 540277, 2011; potentiation, % at 8.33 µM; Transient receptor potential cation channel subfamily V member 1 (Homo sapiens), Q8NER1; active means potentiation above 80%; inconclusive means 30% to 80%; inactive means below 30%; further: 0% is about no effect
Target sequence (Q8NER1 whole entry, looked up): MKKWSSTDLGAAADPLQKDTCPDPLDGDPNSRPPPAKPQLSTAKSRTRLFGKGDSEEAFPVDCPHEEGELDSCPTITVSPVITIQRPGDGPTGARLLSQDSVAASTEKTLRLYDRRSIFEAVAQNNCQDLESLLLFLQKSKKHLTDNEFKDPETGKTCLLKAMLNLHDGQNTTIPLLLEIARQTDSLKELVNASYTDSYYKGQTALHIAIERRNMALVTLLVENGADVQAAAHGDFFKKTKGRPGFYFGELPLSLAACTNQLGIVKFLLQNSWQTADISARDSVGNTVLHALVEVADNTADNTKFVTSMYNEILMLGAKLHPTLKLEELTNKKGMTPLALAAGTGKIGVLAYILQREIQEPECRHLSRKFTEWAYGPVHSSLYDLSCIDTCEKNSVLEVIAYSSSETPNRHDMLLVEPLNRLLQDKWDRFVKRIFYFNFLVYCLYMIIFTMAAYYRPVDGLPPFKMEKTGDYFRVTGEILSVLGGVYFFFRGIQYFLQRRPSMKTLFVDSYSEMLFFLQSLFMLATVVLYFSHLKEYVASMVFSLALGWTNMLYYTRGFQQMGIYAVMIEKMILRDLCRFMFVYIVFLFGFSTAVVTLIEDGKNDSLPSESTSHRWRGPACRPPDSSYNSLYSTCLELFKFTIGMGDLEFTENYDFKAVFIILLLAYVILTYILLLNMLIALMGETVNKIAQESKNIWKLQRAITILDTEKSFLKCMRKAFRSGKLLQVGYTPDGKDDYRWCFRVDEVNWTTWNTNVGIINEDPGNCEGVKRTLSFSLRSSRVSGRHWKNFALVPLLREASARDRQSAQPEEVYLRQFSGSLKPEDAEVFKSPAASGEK
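Cells expressing TRPV1 were dye-loaded with Fluo-8 and read kinetically: 10 s baseline, 3 min after compound (agonist portion), then 2 min after EC20 capsaicin (allosteric enhancer portion). Calcium-bound dye fluorescence at 480/520 nm.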
TRPML1 ag: qHTS for Agonists of the Human Mucolipin Transient Receptor Potential 1 (TRPML1); Mucolipin-1 (Homo sapiens), Q9GZU1; TRPML1-expressing cells, Ca2+ dye fluorescence, FDSS; host cell line not named in the record; reference of the full effect not given here; activation, % (concentration not given with the values); actives 0.12% (n = 410,000); in the data active = activation above about 50%; inconclusive = about 30% to 50%; inactive = below about 30%; further: 0% is about no effect; the text of the record puts the active cut at 80%
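Calcium fluorescence on an FDSS kinetic reader gave the read-out. Tet-induced TRPML1-DL cells were plated overnight, dye-loaded (Ca8 with quencher, 45-90 min, room temperature, dark), then read 110 s after compound addition, and again 110 s after 4uM final 54-4 (EC80).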
Numbers without * were called inactive; ? = inconclusive; · = no result given; & = joins results of further samples.

SMILES	CtBP-E1A inh	TRPML1 blocker	Six1-Eya2 inh	D2 potentiator	TRPV1 potentiator	TRPML1 ag
COc1ccc(C(=O)Nc2ncc3c(n2)CC(c2ccco2)CC3=O)cc1 (centres undefined)	-3	-8	-8	-3	-2	-0.9
Cc1ccc(NC(=O)CSc2ncnc3ccccc23)cc1S(=O)(=O)N1CCOCC1	-2	16	-5	-7	11	1.7
CN1CCC(CO)(Cc2ccccc2)CC1	·	27	3	-8	6	2.4
COc1ccccc1CC(=O)NC1CCCCCC1	10	-5	7	-3	2	0.0
CN(C(=O)COC(=O)C12CC3CC(CC(C3)C1)C2)c1c(N)n(Cc2ccccc2)c(=O)[nH]c1=O	-3	2	5	-12	0	-0.1
Nc1ncnc(NCc2ccc(F)cc2)c1[N+](=O)[O-]	2	-20	6	1	5	0.2
Cn1cnc([N+](=O)[O-])c1Sc1ccncn1	0	11	-10	-9	·	0.2
CSc1nnc2n(-c3ccc(C)cc3)c(=O)c3c4c(sc3n12)COC(C(C)C)C4 (centres undefined)	3	-1	0	-5	·	1.0
COCCn1c(SCC(=O)N2CCCC2)nnc1-c1ccoc1C	3	-1	3	-2	3	-0.6
O=C(CCl)N1CCCC1c1ccc2c(c1)OCCO2 (centres undefined)	2	46	-7	-5	6	-0.5
CC(C)CNS(=O)(=O)c1ccc(CCC(=O)NC2CCCCC2)cc1	-2	4	5	-8	·	1.4
Cn1c(-c2ccccc2)cnc1SCC(=O)N1CCCc2ccccc21	-4	5	-15	-8	-11	-0.6
O=C(CCSc1ccccn1)c1ccccc1	3	-2	8	-7	4	-0.1
S=C(Nc1ccccn1)NC1CCCCC1	-5	-2	-2	-1	10	0.2
CCO[C@H]1OC(C(=O)N2CCN(Cc3ccccc3)CC2)=C[C@@H](c2ccccc2)[C@@H]1CCCO	3	8	-2	-23	-16	-0.9
Cc1c(C(=O)Nc2ccccc2C(=O)N2CCCC2)cccc1[N+](=O)[O-]	·	5	10	-7	14	0.2
Cc1ccc(C(C(=O)NC2CCCCC2)N(C(=O)c2csnn2)C2CC2)cc1 (centres undefined)	-1	35	14	-9	-18	-0.1
O=C(NCCN1CCCC1)c1ccc(CS(=O)(=O)c2c(Cl)cccc2Cl)o1	-1	0	-1	-6	?	0.1
COC(=O)c1ccc(CN(c2ccccn2)S(=O)(=O)c2ccccc2)cc1	-5	-20	-3	-6	18	-0.8
COc1cc(OC)cc(C(=O)Nc2ccccc2C(=O)N2CCCC2)c1	1	10	-3	-12	12	-0.6
Nc1nonc1-n1nnc(C(=O)N/N=C/c2cccnc2)c1-c1cccs1	-3	-9	0	2	?	-0.7
O=C(c1ccc(-n2cnnn2)cc1)N1CCCCC1	-1	-2	6	-5	-15	0.4
O=C(O)c1cccnc1SCc1cccc(Cl)c1	15	-9&-16	5	-29	-4	-0.2&-0.9
CCOC(=O)CNC(=O)c1sc2nc(C)cc(C)c2c1N	-1	1	-1	-7	5	-0.9
COC(=O)c1ccc2nc(-c3ccc(Cl)cc3)c(Cc3ccsc3)n2c1	-3	·	9	·	·	0.3
CN1CCN(C(c2cccc(C(F)(F)F)c2)c2nnnn2Cc2ccccc2)CC1 (centres undefined)	10	6	3	-15	-4	1.6
CCC(=O)N1CCC1(C)C(=O)Nc1nccs1 (centres undefined)	26	·	28	1	·	1.3
COc1cc2c(cc1NC(=S)Nc1ccccc1C)oc1ccccc12	-16	31	-21	-10	-12	2.3
Cc1sc2ncnc(SCC(=O)c3ccc(O)cc3O)c2c1C	1	·	-1	-5	17	·
O=C(NCC1CCCO1)/C(=C\c1ccc(Cl)cc1)NC(=O)c1ccccc1 (centres undefined)	4	1	0	-5	1	-0.7
Cc1cccc(NC(=S)NCc2ccncc2)c1C	-15	4	2	-10	-3	0.5
N/C(=N\N=C\c1cccs1)SC1CC(=O)N(c2cccc([N+](=O)[O-])c2)C1=O (centres undefined)	·	6	4	0	10	-0.3
O=C(CSc1nc2ccccc2[nH]1)c1cccs1	-5	-8	-2	-24	-4	0.0
COC(=O)c1ccc(C(=O)OC)c(NC(=O)CCS(=O)(=O)Cc2ccccc2)c1	1	-11	4	1	-10	0.7
CCOC(=O)c1ccccc1NS(=O)(=O)c1cnn(CC)c1C	2	2	4	0	3	-0.5
COc1ccc(Nc2nc(N)nc(CSC(=S)N3CCC(C)CC3)n2)cc1	-12	-10	1	-3	0	0.3
O=C(CCc1nnc(CCCc2ccccc2)o1)NCCc1ccccc1	2	29	5	-3	-8	-0.8
CCC(=O)N1CCc2cc(S(=O)(=O)NC(CC(C)C)C(=O)N3CCc4ccccc43)ccc21 (centres undefined)	6	-15	3	-9	24	-0.5
Cc1ccc(NC(=S)Nc2ccccn2)cc1C	-4	45	-12	-1	-11	2.3
Cc1nc(C(=O)Nc2ccc(Cl)cc2)nn1-c1ccc([N+](=O)[O-])cc1	6	6	0	-1	·	0.3
COc1cccc(CN(C)C(=O)c2sccc2-c2ccccc2)c1OC	4	-6	1	8	-1	0.4
Cc1ccc(-c2csc(N3CCN(c4ccc5nc(-c6ccncc6)n(CCN6CCCCC6)c5c4)CC3)n2)cc1	-25	-3	-13	-4	?	-0.3
O=C(Nc1ccc(NC(=O)c2ccco2)c(Cl)c1)c1cccc([N+](=O)[O-])c1	5	12	6	-5	14	2.5
COc1ccc(CNC(=O)c2cc(C(C)=O)c[nH]2)cc1	-23	8	-4	-4	9	0.0
COC(=O)[C@@H]1CCCN1Cc1c(C(=O)N2CCCCC2)nc2c(C)cccn12	4	-3	-2	-9	1	-0.3
OCCNCCCCOc1cccc(Br)c1	1	-7	-5	-15	7	2.2
CC(=O)Nc1ccc(N2CCN(C(=O)c3cccs3)CC2)cc1	7	23	0	-7	7	4.2
CN=C1N(C)C[C@@H]2[C@@H]3C(=O)N(Cc4ccccc4)C(=O)[C@@H]3[C@](Cc3ccccc3)(C(=O)OC)N12	-20	-2	2	-3	·	-0.2
COc1ccc(CCNc2ccncn2)cc1OC	8	14	-1	-8	-9	-0.2
CS(=O)(=O)N(CC(=O)N/N=C/c1ccco1)c1ccccc1Br	4	-10	-2	-4	5	1.2
Cc1csc(SCCN2C(=O)c3ccccc3C2=O)n1	8	-10	8	-1	1	0.2
O=C(O)C1CC(=O)n2c(nc3ccccc32)S1 (centres undefined)	-7	4	8	8	-1	-1.1
CC(Sc1nncn1C)C(=O)Nc1ccc2ccccc2c1 (centres undefined)	-8	-13	0	1	0	0.5
O=[N+]([O-])c1ccc(OCC2CC(c3ccccc3)=NO2)cc1 (centres undefined)	8	25	-3	-8	-14	1.1
O=S(=O)(c1ccc(NC(=S)N/N=C/c2ccc(Oc3ccccc3)cc2)cc1)N1CCOCC1	-1	1	1	-5	-7	-0.3
CNC(=O)c1cccc2nc3ccccc3nc12	?	-11	-22	4	6	-0.7
COc1cc(C(O)c2nc(-c3cccc(C#N)c3)cs2)ccc1F (centres undefined)	8	·	13	0	·	-1.0
Nc1nnc2c(n1)CCCC2	-25	4	-22	?	11	0.1
CC(C)c1ccc(NC(=O)C2(C)Cc3c(-c4ccc(C(N)=O)cc4)ccnc3O2)cc1 (centres undefined)	-6	·	-7	-9	·	-0.8
COc1ccc2c(c1OC)C(=O)OC2Nc1ccccc1S(=O)(=O)C(F)F (centres undefined)	6	-6	4	4	-5	0.0
Next part.
SMILES	CtBP-E1A inh	TRPML1 blocker	Six1-Eya2 inh	D2 potentiator	TRPV1 potentiator	TRPML1 ag
Cc1ccc(/C=C/c2nnc(-c3cccs3)o2)cc1	-4	-3	5	-3	-11	-0.4
Cc1c(Cl)cccc1NC(=O)c1cccnc1	·	·	10	-8	-7	·
CCOC(=O)C1CCCN(S(=O)(=O)CCNC(=O)c2ccc3c(c2)OCO3)C1 (centres undefined)	6	2	4	-5	0	0.0
C=C1CCN([C@@H](CC(C)C)C(=O)NN2CCOCC2)S(=O)(=O)c2ccccc21	-20	-1	3	-37	·	-0.5
C(=C\c1ccccc1)/CN1CCN(C(c2cc3ccccc3o2)c2nnnn2Cc2ccccc2)CC1 (centres undefined)	-9	·	3	-11	·	-0.6
CCCn1c(=O)c(C(=O)NNC(=O)c2ccc(Cl)cc2Cl)c(O)c2ccccc21	·	-3	-1	-7	-3	2.5
O=C(CSc1nnc(-c2cccnc2)o1)Nc1nccs1	?	3	-71*	?	-9	0.2
COc1cccc(-c2nc(CS(=O)CC(=O)NC3CCCCC3)c(C)o2)c1 (centres undefined)	-4	-4	5	-12	11	-0.4
Cc1ccc(-c2noc(CCC(=O)NCC3CCN(Cc4cccc(C)c4)CC3)n2)cc1	8	-8	2	-14	-16	0.3
O=C(O)C1CCN(c2ccccc2[N+](=O)[O-])CC1	8	16	32	-1	-11	-0.4
O=[N+]([O-])c1ccc(O)c(C=Nc2ccc3c(c2)OCCO3)c1	-3	-1	-10	-14	-7	-0.3
O=C(NCCC(NS(=O)(=O)OCC(Cl)(Cl)Cl)c1ccccc1)C(F)(F)F (centres undefined)	8	6	5	-4	-16	-0.3
CNC(=O)NNC(=O)c1nc(-c2ccccc2)c(C)o1	3	28	3	-1	2	-0.1
Cc1cc(O)c(C(C)C)cc1N=Nc1ccccc1C(=O)O	-29	20	-24	-12	17	1.9
COC(=O)CNC(=O)c1ccccc1F	2	0	-2	-19	-5	-0.2
O=C(CCc1nc(-c2ccccc2)no1)Nc1cccnc1	-4	-3	-8	-4	-60	-0.3
CN(C(=O)Nc1ccc(Cl)c(Cl)c1)c1ccccc1C(=O)O	-6	-10	3	-6	29	-0.3
COc1ccc(-c2nnn(CC(=O)N(CCO)C(C(=O)NC3CCCC3)c3ccc(F)cc3)n2)cc1 (centres undefined)	8	-1	-1	-14	3	-0.1

Compound profiles, as listed above:
COC(=O)CNC(=O)c1ccccc1F across the screens: CtBP-E1A inh = 2; TRPML1 blocker = 0; Six1-Eya2 inh = -2; D2 potentiator = -19; TRPV1 potentiator = -5; TRPML1 ag = -0.2
CCCn1c(=O)c(C(=O)NNC(=O)c2ccc(Cl)cc2Cl)c(O)c2ccccc21 across the screens: CtBP-E1A inh = ·; TRPML1 blocker = -3; Six1-Eya2 inh = -1; D2 potentiator = -7; TRPV1 potentiator = -3; TRPML1 ag = 2.5

Six1-Eya2 inh: what is marked active above
molecule | CtBP-E1A inh | TRPML1 blocker | Six1-Eya2 inh | D2 potentiator
O=C(CSc1nnc(-c2cccnc2)o1)Nc1nccs1 | ? | 3 | -71* | ?
